GALR2 ag – GALR2 receptor agonists, primary screen, cell-based | GALR2-expressing cells, agonist activation read-out | activation, %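 (tested at 5 µM)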 | 140,000 tested, 0.48% active;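 active means above mean plus 3 SD of all compounds, about 5% in these data, not always enough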;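 further: 0% = vehicle buffer wells and 100% = reference agonist at full effect; tested in CHO reporter cells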
PKD1 kinase inh – inhibitors of human PKD1 kinase, biochemical, fluorescence polarization | Serine/threonine-protein kinase D1 (Homo sapiens), Q15139 | PKD1 kinase fluorescence polarization assay | inhibition, %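 (about 10 µM by stock and volumes)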 | 200,000 tested, 0.056% active | AID 797, 2007;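 active means inhibition of 50% or more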;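 further: controls were vehicle for no effect and a reference inhibitor for full effect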
Target sequence (Q15139 whole entry, looked up): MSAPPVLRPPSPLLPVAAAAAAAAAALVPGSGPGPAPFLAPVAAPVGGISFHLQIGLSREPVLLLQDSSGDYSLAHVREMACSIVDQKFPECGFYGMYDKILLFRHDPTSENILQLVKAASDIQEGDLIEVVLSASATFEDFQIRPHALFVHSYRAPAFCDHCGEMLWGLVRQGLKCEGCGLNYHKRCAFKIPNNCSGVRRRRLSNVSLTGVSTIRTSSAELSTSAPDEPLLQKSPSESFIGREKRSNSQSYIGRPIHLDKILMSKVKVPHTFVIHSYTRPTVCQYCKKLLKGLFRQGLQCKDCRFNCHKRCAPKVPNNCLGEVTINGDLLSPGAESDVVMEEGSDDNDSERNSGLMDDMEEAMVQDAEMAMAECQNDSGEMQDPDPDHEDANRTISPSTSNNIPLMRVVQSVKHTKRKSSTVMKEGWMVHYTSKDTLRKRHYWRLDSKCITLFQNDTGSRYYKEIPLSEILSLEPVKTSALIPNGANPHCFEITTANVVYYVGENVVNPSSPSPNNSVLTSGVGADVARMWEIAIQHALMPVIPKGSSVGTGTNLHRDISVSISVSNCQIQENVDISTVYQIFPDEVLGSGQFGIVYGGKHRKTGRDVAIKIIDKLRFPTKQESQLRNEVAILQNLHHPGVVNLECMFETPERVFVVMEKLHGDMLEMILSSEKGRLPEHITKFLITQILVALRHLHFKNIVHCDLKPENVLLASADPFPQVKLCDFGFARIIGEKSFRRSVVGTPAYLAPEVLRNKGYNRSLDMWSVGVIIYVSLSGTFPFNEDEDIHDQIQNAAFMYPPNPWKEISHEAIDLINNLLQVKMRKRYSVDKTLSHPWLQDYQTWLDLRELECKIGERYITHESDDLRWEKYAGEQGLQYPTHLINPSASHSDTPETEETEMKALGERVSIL
Insulin prom inh – inhibitors of insulin promoter-driven GFP, primary screen, imaging, TRM-6 cells (human fetal islet line), eGFP reporter, cell count; reporter expression induced with tamoxifen; 130,000 tested, 0.9% active; inhibition, % at 2 µM;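 active means inhibition above the mean plus 3 SD, with well images judged a real hit on visual review, cut at about 60% in these data, passing the limit was not always enough; inconclusive means inhibition over the cutoff but images rejected on review; inactive means inhibition not above the cutoff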
HSV replic up – enhancers of HSV replication in host cells, fold increase, host cell viability; 220,000 tested, 0.005% active; HSV replication augmentation in cells; maximum fold increase;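 active means peak rise of 1.5-fold or more in the series; inconclusive means self-fluorescent or not available for retest; tested in PC3 cells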;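 further: first round at 10 µM; read as green reporter fluorescence; hits show the peak of a series up to 25 µM; 1 = signal of infected wells without compound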
RGS16-Gao HTS – modulators of RGS16 binding to Galphao, primary screen, biochemical, human proteins, multiplexed bead flow cytometry. Regulator of G-protein signaling 16 (Homo sapiens) + Guanine nucleotide-binding protein …. bead-based flow cytometry RGS16-Galphao binding, fluorescence; actives lie on both sides. binding response (% of control), % at 10 µM. 220,000 tested, 0.38% active. AID 1441, 2008;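 active means below 25% or above 175%, edge rows of some plates excepted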;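 further: Galphao activated by GDP with aluminum fluoride before binding; 100% = wells without compound and 0% = beads without RGS; some results beyond the cut were filed as inactive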
Insulin prom inh cell count – second read-out of Insulin prom inh, no call of its own (marks repeat the call); normalized cell count, %; measured here: cell count, toxicity; reference of the scale not given here;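 cells exposed to compound for 48 h; stained nuclei by imaging scaled within each plate; lower means fewer cells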
HSV replic up primary fold – recorded beside HSV replic up, whose call it bears; fold increase; compound at 10 µM; measured here: primary screen fold increase 10 uM; tested in PC3 cells;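 GFP signal in the first replicate; 1 = infected wells without compound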
Starred values were filed as active, the others as inactive; i = inactive; ? = inconclusive; / = not tested or not shown. No enrichment for hits, and some 1.3% of all compounds hit somewhere here.

SMILES	GALR2 ag	PKD1 kinase inh	Insulin prom inh	Insulin prom inh cell count	HSV replic up	HSV replic up primary fold	RGS16-Gao HTS
Cc1nn(C)c(C)c1CN(C)C(=O)c1cc2nc(-c3ccco3)cc(C(F)(F)F)n2n1	-2.3	-7	-3	83	i	1	98
COc1ccc(-c2cc(N)n(S(=O)(=O)c3c(F)c(F)c(F)c(F)c3F)n2)cc1OC	-1.7	3	50	59	i	0.96	101
CCOC(=O)N=Nc1c(O)n(Cc2ccccc2)c2ccccc12	/	4	/	/	i	1.2	93
COc1ccccc1CNC(=O)/C=C/c1ccc(Br)o1	/	-5	/	/	i	1.1	94
O=C(CN1C2CCCC1CC(NC(=O)c1ccco1)C2)Nc1ccccc1C(F)(F)F (stereo not drawn)	-2.8	-4	-20	95	i	0.93	105
COc1ccc2c(c1)C(=O)[C@H](O)[C@@H](c1ccc(OC)c(Br)c1)O2	-0.1	-2	15	105	i	0.98	102
NNC(=O)CC12CC3CC(C1)CC(n1ncnn1)(C3)C2	-0.6	-5	-12	66	i	0.97	40
Cc1ccc(NS(=O)(=O)c2ccc(CCC(=O)N3CCCC3)cc2)cc1	/	5	/	/	i	0.92	104
C=CCOC(=O)c1[nH]c2c(c1C)C(=O)CC(c1ccco1)C2 (stereo not drawn)	0.7	2	/	/	i	0.61	99
CN(C(=O)c1sc2nc(N3CCOCC3)c3c(c2c1N)CCCC3)c1ccccc1	/	9	6	119	i	0.98	96
Cc1ccccc1C1NC(c2ccccc2C)C([N+](=O)[O-])C(C)(C)C1[N+](=O)[O-] (stereo not drawn)	/	/	/	/	i	1	101
COc1ccc(-c2oc3ncn(CCN4CCOCC4)c(=N)c3c2-c2ccc(OC)cc2)cc1	3.5	-4	-21	50	i	0.86	104
Cc1cc(C(=O)NCc2cccs2)no1	-2.3	1	13	75	i	0.89	101
O=c1[nH]c(=O)c2nnc(N/N=C\c3ccc(O)cc3)nc2[nH]1	/	3	/	/	i	0.97	96
COc1ccc(C2/C=C\CN(Cc3ccco3)CC(=O)N2Cc2ccc(F)cc2)cc1 (stereo not drawn)	/	/	/	/	i	0.88	99
CN(C)S(=O)(=O)c1ccc(=S)[nH]c1	/	2	/	/	i	1	78
Cc1ccc(S(=O)(=O)N(C)CC(=O)OCC(=O)NC(=O)Nc2ccc3c(c2)OCCO3)cc1	-0.4	6	-19	121	i	0.98	94
CCOc1ccc(NC(=O)CCC(=O)NNS(=O)(=O)c2ccccc2[N+](=O)[O-])cc1	/	-6	/	/	i	0.99	111
CC(C)CC(NC(=O)C1CCC(C)CC1)C(=O)N1CCN(c2ccccn2)CC1 (stereo not drawn)	-1.2	-8	/	/	i	0.95	106
CCC(=O)N1CCCc2cc(S(=O)(=O)N3CCN(c4ccccc4F)CC3)ccc21	-2.2	-1	/	/	/	/	103
CCC(C(=O)NCc1ccco1)N(C(=O)CNS(=O)(=O)c1ccccc1)c1ccccc1C (stereo not drawn)	/	1	/	/	i	0.99	101
N/C(Cn1cncn1)=N\NC(=O)c1ccc(Cl)cc1Cl	/	1	/	/	i	0.84	102
COc1cnc(-c2ccccn2)nc1Sc1ccccc1	/	4	-80	79	i	0.76	109
CC(C)CN1C(=O)NC(NC(=O)c2ccco2)(C(F)(F)F)C1=O (stereo not drawn)	-2.5	-15	-82	89	i	0.8	103
C=CCN1C(=O)C(O)(CC(=O)c2c(C)n[nH]c2C)c2cc(Br)ccc21 (stereo not drawn)	-2.3	-2	-18	61	i	1	101
FC(F)(Cl)c1nnc2ccc(Cl)nn12	/	3	10	100	i	0.65	97
NNC(=O)c1cnn(-c2ccccc2)c1C(F)(F)F	/	3	41	171	i	0.96	106
CC(=O)Nc1cccc2c1C(=O)N(c1cccc(C)c1)C2=O	-0.4	0	-391	37	i	0.85	50
CC(=O)c1cccc(CN2CCCC(CCC(=O)NCc3ccc(C)o3)C2)c1 (stereo not drawn)	/	-8	17	88	i	1.1	105
Cn1c(=O)[nH]c(=O)c2c1nc(NCCCn1ccnc1)n2Cc1ccc(F)cc1	-4.2	5	/	/	i	1.1	100

Single records, as listed above. Values in the order: GALR2 ag	PKD1 kinase inh	Insulin prom inh	Insulin prom inh cell count	HSV replic up	HSV replic up primary fold	RGS16-Gao HTS
Entry for CC(=O)c1cccc(CN2CCCC(CCC(=O)NCc3ccc(C)o3)C2)c1 (stereo not drawn) = /	-8	17	88	i	1.1	105
Entry for CC(C)CN1C(=O)NC(NC(=O)c2ccco2)(C(F)(F)F)C1=O (stereo not drawn) = -2.5	-15	-82	89	i	0.8	103
Entry for CC(=O)Nc1cccc2c1C(=O)N(c1cccc(C)c1)C2=O = -0.4	0	-391	37	i	0.85	50
Entry for CN(C)S(=O)(=O)c1ccc(=S)[nH]c1 = /	2	/	/	i	1	78

(continued)
SMILES	GALR2 ag	PKD1 kinase inh	Insulin prom inh	Insulin prom inh cell count	HSV replic up	HSV replic up primary fold	RGS16-Gao HTS
N#CCN1CCC2(O)CCCCC2C1c1ccc2c(c1)OCO2 (stereo not drawn)	/	/	/	/	i	0.99	103
C=CCc1cccc2cc(C(=O)Nc3ccc(S(=O)(=O)Nc4nnc(CC)s4)cc3)c(=O)oc12	-0.7	-1	/	/	i	0.83	103
Cc1cc(SCc2cc(=O)n3ccsc3n2)nc2ccccc12	-0.6	14	-7	103	i	0.97	102
Cc1ncsc1CCC(=O)N1CCCC(C(=O)c2ccc3c(c2)OCO3)C1 (stereo not drawn)	/	8	/	/	i	0.97	98
Cc1nn(C)c(C(=O)N/N=C/c2ccccc2)c1[N+](=O)[O-]	-2.8	-2	50	84	i	1	99
COC(=O)c1ccc2c(c1)S(=O)(=O)NC(=NCc1ccco1)S2	-2.2	5	/	/	i	1	97
CNC(=O)NC1CCCc2ccccc21 (stereo not drawn)	0.7	-4	/	/	i	0.83	100
O=C(Cn1nc(-c2ccccc2)ccc1=O)NCc1ccc(F)cc1	/	-11	39	97	i	1.1	100
O=C(Nc1ccc(S(=O)(=O)Nc2nccs2)cc1)/C(=C/c1ccccc1Cl)NC(=O)c1ccccc1	-0.3	-13	11	136	i	1.1	99
Cc1onc(-c2ccccc2)c1CNS(=O)(=O)c1cccc(Cl)c1	/	/	/	/	i	0.95	141
CCOc1ccc(OCCCCNC(C)(C)C)cc1	/	0	/	/	i	1.1	101
CSc1ccccc1C(=O)Nc1ccccc1C(=O)NC(C)C	/	-1	/	/	i	0.91	100
CC(NC(=O)CNC(=O)C1O[C@@H]2OC(C)(C)O[C@@H]2[C@H]2OC(C)(C)O[C@@H]12)C(=O)O (stereo partly drawn)	/	7	/	/	i	1	103
COC(=O)[C@H](CCSC)NC(=O)NC1CCN(Cc2ccccc2)CC1	-0.3	-3	/	/	i	0.92	105
COc1ccc(OC)c(/C=C/C(=O)Nc2ccc3c(c2)CCC3)c1	-0.8	-5	/	/	i	0.85	95
O=C(CSc1nc2ccccc2o1)Nc1nc(-c2ccccc2)c(-c2ccccc2)s1	0.0	12	/	/	i	0.97	99
CCOCCCNC(=O)C(=O)NCCCOCC	0.7	-11	-17	130	i	1	106
Cc1sc2ncnc(SCC(=O)c3ccc4c(c3)OCCO4)c2c1-c1ccccc1	0.0	-11	/	/	/	/	108
Nc1ccc(S(=O)(=O)Nc2nccc(/C=C/c3ccc(Br)s3)n2)cc1	/	-8	40	148	i	0.96	97
CCCCNC(=S)Nc1ccc(OC)nc1	/	1	50	65	i	1.2	109
CC(N=Cc1cc([N+](=O)[O-])ccc1O)c1ccccc1 (stereo not drawn)	/	-5	-64	168	i	0.98	107
Cc1ccc(C2C(C(N)=S)=C(N)OC3=C2C(=O)CC(C)(C)C3)cc1 (stereo not drawn)	-0.8	-7	53	113	i	1.1	96
C=C(C)Cn1c(CCCNC(=O)CCC)nc2ccccc21	-1.2	-2	/	/	i	0.85	101
Cc1[nH]nc2c1C1(CCOCC1)C(C#N)=C(N)O2	-0.8	-1	/	/	i	0.97	100
O=C(CCc1c[nH]c2ccccc12)NCC(=O)Nc1ccc(F)c(F)c1F	/	-5	8	68	i	0.93	116
COc1ccc2cnnc(SCC(=O)Nc3ccccc3)c2c1OC	0.1	-1	12	44	i	1.1	101
CCCCOCCCNC(=O)c1ccc(OC)cc1	2.6	-3	17	101	i	0.77	102
CC1=CC(C)(C)N(C(=O)CSc2nncn2C)c2ccccc21	-1.9	-5	i	50	i	0.79	105
Cn1c(=O)oc2cc(S(=O)(=O)N3CCCc4ccccc43)ccc21	-1.9	-11	/	/	i	0.61	112
C=CCn1c(=O)n(CCC#N)c(=O)n(CCC#N)c1=O	-1.6	-4	27	87	i	0.59	110

Compounds from the list above that contain a thiophene ring, fused or not:
SMILES	GALR2 ag	PKD1 kinase inh	Insulin prom inh	Insulin prom inh cell count	HSV replic up	HSV replic up primary fold	RGS16-Gao HTS
CN(C(=O)c1sc2nc(N3CCOCC3)c3c(c2c1N)CCCC3)c1ccccc1	/	9	6	119	i	0.98	96
Cc1cc(C(=O)NCc2cccs2)no1	-2.3	1	13	75	i	0.89	101
Cc1sc2ncnc(SCC(=O)c3ccc4c(c3)OCCO4)c2c1-c1ccccc1	0.0	-11	/	/	/	/	108
Nc1ccc(S(=O)(=O)Nc2nccc(/C=C/c3ccc(Br)s3)n2)cc1	/	-8	40	148	i	0.96	97

More entries:
SMILES	GALR2 ag	PKD1 kinase inh	Insulin prom inh	Insulin prom inh cell count	HSV replic up	HSV replic up primary fold	RGS16-Gao HTS
O=C(NCC1CCNCC1)c1ccncc1	-0.8	1	21	129	i	0.97	98
CN(Cc1ccccc1)S(=O)(=O)c1ccc2c(c1)OCCO2	-1.6	-3	38	113	i	0.89	94
Cc1ccc(-c2nnc(N(C)C(=O)c3ccccn3)s2)cn1	0.1	0	43	160	i	1	100
CNC(=S)NNC(=O)c1cc(C(C)(C)C)nn1Cc1ccc(F)cc1	/	/	/	/	i	1.1	101
CC1(C)CCc2nc(SCc3ccccc3)c(C#N)cc2C1	-0.7	6	6	122	i	0.91	102
COc1cc(C(=O)Nc2ccc(S(=O)(=O)Nc3cc(C)on3)cc2)cc(OC)c1OC	-1.2	-9	/	/	i	0.95	87
COC(=O)c1ccc(NC2=C(Cl)C(=O)OC2OC(=O)c2ccccc2)cc1 (stereo not drawn)	/	6	-40	102	i	0.96	97
CC(C)(C)OC(=O)NCCCC[C@H](NC(=O)c1nc[nH]c1C(=O)NCc1ccccc1)C(=O)OC(C)(C)C	/	-1	/	/	i	0.74	107
Cc1cc(Br)c2nc3c(c(C(=O)O)c2c1)CCCCC3	0.1	7	29	104	i	0.9	103
Cc1c(N=N/C(C(=O)Nc2ccccc2)=C(/O)c2ccccc2)c(=O)n(-c2ccccc2)n1C	/	-5	/	/	i	1.1	101
N#C/C(=C\c1ccc([N+](=O)[O-])o1)C(=O)Nc1ccc(F)cc1	/	2	-400	33	?	/	96
COc1ccc(-c2cc(CCCC(=O)NCCc3ccc(OC)cc3OC)no2)cc1	-2.8	-1	-9	43	i	0.82	101
COC(=O)CSc1ccccc1C(=O)OC	-0.6	-3	-186	116	i	0.85	101
O=C(NCC1CCCO1)C1CCCCN1S(=O)(=O)c1ccc(F)cc1 (stereo not drawn)	-0.6	-4	-26	135	i	0.88	107
Cc1ccsc1/C=C/C1=Cc2c(sc(NC(=O)CSc3n[nH]c(N)n3)c2C#N)C(C)(C)C1	-1.6	-2	-61	101	i	0.89	97
CN(C(=O)C12CC3CC(CC(C3)C1)C2)C1(C)CCS(=O)(=O)C1 (stereo not drawn)	1.1	5	-8	163	i	0.96	101
O=C(Nc1nc(-c2nc3ccccc3s2)cs1)c1ccc(S(=O)(=O)N2CCOCC2)cc1	-1.8	9	/	/	/	/	100
Cc1cc(NN)nc2ccc(Cl)cc12	/	-9	18	111	i	1	93
CCOC(=O)c1[nH]c2c(c1-c1ccccc1)C(=O)CC(c1ccc(Cl)cc1)C2 (stereo not drawn)	-0.6	-10	-105	108	/	/	/
